ALR H2O2 inh: human ALR oxidase inhibition via reduced H2O2. purified ALR, DTT oxidation, H2O2 HRP-luminol luminescence. actives 3.8% (n = 290,000). inhibition, % (concentration not given with the values);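 active = mean and each replicate at 75% or more; inconclusive = only one of the two met; inactive = neither met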;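 also: stock transfer was 7.5 nL into about 7.5 µL; 0% = neutral wells and 100% = wells with inactivated enzyme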
Target sequence (P55789 whole entry, looked up): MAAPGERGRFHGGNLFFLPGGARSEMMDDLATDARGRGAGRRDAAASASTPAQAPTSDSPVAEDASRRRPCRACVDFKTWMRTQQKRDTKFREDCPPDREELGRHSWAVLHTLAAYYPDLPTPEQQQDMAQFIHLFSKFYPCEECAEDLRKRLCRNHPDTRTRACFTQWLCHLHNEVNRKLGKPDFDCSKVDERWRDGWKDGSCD
AF4-AF9 inh: MLL-AF4/AF9 protein interaction inhibition | AID 651704 | AlphaScreen, biotin-AF4 peptide binding to FLAG-AF9 | actives 0.47% (n = 350,000) | inhibition, % at 10 µM;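 active = every replicate reaching a set inhibition limit, whatever the replicate mean, cut at about 25% in these data; inconclusive = mean inhibition reaches that limit but some replicates miss it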;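 also: 0% = plate neutral control median and 100% = total signal loss; the record names both 10 and 1 µM as test concentration; the first replicate is given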
E coli growth: inhibitors of Escherichia coli growth. OD600, 23 h; hits give low values. OD600 absorbance (concentration not given with the values). actives 0.21% (n = 330,000);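 active = OD600 absorbance below the run mean of sample wells minus 3.6 SD, in any replicate, cut at about 0.56 in these data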;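 also: stock transfer was 300 nL into about 60 µL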
rRNA inh HTS: selective bacterial rRNA inhibition in E. coli; E. coli WT GFP vs humanized-ribosome RFP mutants, fluorescence, 24 h; hits give low values; DMSO median 0, no signal -100; GFP signal change (wild-type ribosome), % (concentration not given with the values); actives 1.6% (n = 350,000);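 active = significant combined selectivity score with lowered wild-type GFP, culture density cut under 30%, mutant RFP and density less affected; inactive = any of these conditions unmet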; also: one replicate is shown; some compounds called inactive have numbers as strong as hits
FGF22 binding: binders of recombinant human FGF22 by thermal shift | Q9HCT0 | SYPRO orange fluorescence; percent of sucrose octasulfate shift, DMSO zero | calls only at 9.99 µM | actives 1.5% (n = 340,000);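 active = melting point raised past a set limit in the mean and every replicate; inconclusive = no clear call; three in four hits are not shown here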
Target sequence (Q9HCT0 whole entry, looked up): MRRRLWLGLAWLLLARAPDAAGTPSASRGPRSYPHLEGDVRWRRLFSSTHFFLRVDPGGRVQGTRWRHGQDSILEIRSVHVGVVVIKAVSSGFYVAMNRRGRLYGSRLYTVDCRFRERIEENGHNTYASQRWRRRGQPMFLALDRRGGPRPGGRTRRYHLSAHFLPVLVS
HNF4A DNA FP: change in binding of human HNF4 alpha to DNA | AID 1224865 | P41235 | actives 0.3% (n = 360,000) | activity change, % at 10 µM | HNF4a-FITC DNA binding, fluorescence polarization, 1 h; in the data active = activity change above about 30%, passing the limit was not always enough;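 also: controls were the assay level and a saturating level of protein; the project sought stronger binding though the title names inhibitors; some compounds called inactive have numbers as strong as hits; positive values seem to mean higher polarization but the record does not say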
Target sequence (P41235 whole entry, looked up): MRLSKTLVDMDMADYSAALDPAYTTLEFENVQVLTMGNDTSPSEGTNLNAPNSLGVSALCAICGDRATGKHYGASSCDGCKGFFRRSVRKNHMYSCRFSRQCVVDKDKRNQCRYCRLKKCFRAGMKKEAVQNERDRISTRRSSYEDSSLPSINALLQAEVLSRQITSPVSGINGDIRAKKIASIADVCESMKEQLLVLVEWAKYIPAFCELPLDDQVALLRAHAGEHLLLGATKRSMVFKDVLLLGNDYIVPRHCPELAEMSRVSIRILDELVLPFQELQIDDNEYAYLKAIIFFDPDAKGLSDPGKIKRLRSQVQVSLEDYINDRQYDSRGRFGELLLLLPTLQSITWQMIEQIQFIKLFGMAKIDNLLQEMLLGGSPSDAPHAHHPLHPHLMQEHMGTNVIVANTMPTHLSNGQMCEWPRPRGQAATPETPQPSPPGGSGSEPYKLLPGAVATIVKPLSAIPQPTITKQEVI
Vif A3G: inhibitors of Vif binding to APOBEC3G peptide, primary screen, biochemical, TR-FRET, GST-Vif 1-94, biotin-A3G peptide, dose response retest (AID 1117319). TR-FRET GST-Vif / biotin-A3G peptide binding; higher % means a stronger effect; test concentration not given here; strong numbers were not always called active. one-dose inhibition, %; IC50 in µM for titrated hits. actives 0.57% (n = 260,000);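 active = above the screen mean plus three standard deviations and confirmed in dose response; inconclusive = results disagree or hit not tested in dose response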;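 also: Vif residues 1-94 fused to GST binding biotinylated APOBEC3G peptide 110-148; 0% = full assay without inhibitor and 100% = GST in place of GST-Vif; retest series ran down from 100 µM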
rRNA inh HTS OD600: recorded beside rRNA inh HTS, whose call it bears; OD600 change, %; measured here: OD600 growth;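 optical density of the mix in the first replicate; 0 = DMSO median and -100 = no signal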
rRNA inh HTS RFP: second read-out of rRNA inh HTS, no call of its own (marks repeat the call); RFP signal change, %; measured here: RFP humanized mutant strains;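 first replicate; 0 = DMSO median and -100 = no signal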
Starred values were filed as active, the others as inactive; i = inactive; ? = inconclusive; . = no result given; + = active, no number; & = joins results of further samples.

E coli growth	Vif A3G	rRNA inh HTS OD600	FGF22 binding	SMILES	rRNA inh HTS	ALR H2O2 inh	rRNA inh HTS RFP	HNF4A DNA FP	AF4-AF9 inh
0.68	0%	10	i	CC(=O)Nc1ccc(CN2CCN(Cc3ccc(F)c(F)c3)C(CCO)C2)cc1 (stereo not drawn)	12	-12	1.4	3.6	0.0
0.77	-3%	.	.	COC(=O)c1ccccc1NC(=O)CC#N	.	-8	.	0.8	.
0.66	0%	-20	i	Cc1ccc(SCCC(=O)NCCSCc2ccco2)cc1	-10	-13	-3.6	4.1	0.2
0.72	2%	.	.	COc1ccc(C2C=C(c3ccccc3)Nc3nc(CCCO)nn32)cc1 (stereo not drawn)	.	-4	.	.	.
0.79	-3%	-75	i	Cn1cc(SCC(=O)N2CCCc3ccccc32)c2ccccc21	-57	.	-17	-0.4	-3.0
.	.	-8	i	COCC(=O)N(C)C[C@H]1Oc2ncc(-c3ccc(F)cc3)cc2C(=O)N([C@@H](C)CO)C[C@@H]1C	-1	.	-2.7	.	0.9
0.71	.	.	i	COc1ccccc1CNC(=O)COc1cc2c(c3oc(=O)cc(C)c13)CCC(C)(C)O2	.	-24	.	4.4	-1.4
.	.	-9	i	Cc1noc(C)c1S(=O)(=O)Nc1ccc2c(c1)C(=O)N([C@@H](C)CO)C[C@H](C)[C@@H](CN(C)C(=O)Nc1ccc(F)cc1)OCCCC[C@@H](C)O2	0	.	-1.4	.	0.5
0.68	8%	.	.	CCN(CC)C(=O)c1n[nH]c(=O)c2ccccc12	.	-8	.	-0.4	.
0.68	-10%	5	i	Cc1ccc(NC(=O)COC(=O)Cn2cnc3ccccc32)c(C)c1	10	.	0.1	1.7	-0.9
0.69	1%	.	.	CCOC(=O)c1cccc(NC(=O)CSc2nnc(C)n2Cc2ccccc2)c1	.	24	.	-2.2	.
0.59	.	7	i	O=C(Nc1nccs1)OCc1ccccc1	20	-1	1.9	2.2	3.8
0.64	3%	.	.	COC(=O)c1ccc(CSc2nnc(N)s2)cc1	.	40	.	-0.9	.
0.69	-21%	-34	i	CC(C(=O)Nc1ccc(Cl)cc1Cl)N1C(=O)NC2(CCCCCCC2)C1=O (stereo not drawn)	-28	5	0.3	-2.4	0.4
0.72	0%	.	.	COc1ccc(NC(=O)C(=O)NNC(=O)c2cccs2)c(OC)c1	.	-2	.	-2.5	.
.	5%	.	.	Cc1ccc(-c2cc(-c3ccccc3)nc(N/N=C/c3cccnc3)n2)cc1	.	0	.	2.3	.
.	.	-2	i	COc1ccc(NC(=O)c2cc(-c3cc(C)cs3)[nH]n2)cc1OC	-14	.	2.1	1.4	-2.4
0.58	.	-14	+	O=C(Nc1ccc(C(=O)O)cc1)Nc1ccc([N+](=O)[O-])cc1	-10	.	0.7	2.6	0.6
0.69	0%	3	i	CCc1nc(CNC(=O)C2CCC(=O)N(Cc3cccc(OC)c3)C2)no1 (stereo not drawn)	6	-23	-1.5	0.6	-0.6
0.68	-10%	2	i	O=C(NCC1CCCO1)C(=O)c1c[nH]c2ccccc12 (stereo not drawn)	9	0	-1.1	-1.6	-0.8
0.65	0%	-47	i	O=C(CC(C(=O)O)c1cccc(Br)c1)c1ccc(Cl)cc1 (stereo not drawn)	-33	-1	-15	-0.8	-0.4
0.66	-15%	-32	i	O=C(Nc1ccc(F)cc1)c1ccccc1NS(=O)(=O)N1CCCC1	-21	-8	-5.0	1.7	-1.5
0.69	.	1	.	O=C(O)c1cccc(S(=O)(=O)N2CCC(n3nnc4cc(C(F)(F)F)ccc43)CC2)c1	0	5	-2.3	1.7	-5.5
.	.	-2	i	C[C@@H]1CCCCO[C@H](CN(C)C(=O)CCCN(C)C)[C@@H](C)CN([C@H](C)CO)C(=O)c2cc(NC(=O)Nc3cccc4ccccc34)ccc2O1	-1	.	-1.2	.	-1.3
.	.	7	i	O=C(C[C@H]1CC[C@H](NC(=O)C2CCC2)[C@@H](CO)O1)Nc1nccs1	3	.	-3.5	.	-1.3
0.69	-6%	.	.	Cc1nn(Cc2ccc(C(=O)N3N=C(C(F)F)CC3(O)C(F)F)cc2)c(C)c1[N+](=O)[O-] (stereo not drawn)	.	-2	.	1.5	.
0.7	.	-40	i	CCN(CC)CCC(=O)N1c2ccccc2Sc2ccc(Cl)cc21	4	64	25	-1.1	-11
.	.	-1	i	CO[C@@H]1CN(C)C(=O)c2ccc(NS(=O)(=O)c3ccc(-c4ccccc4)cc3)cc2OC[C@H](C)NC[C@H]1C	5	.	2.8	.	-0.6
0.67	?	5	i	Cc1cccc(NC(=O)CSc2nnc(-c3ccco3)c(-c3ccco3)n2)c1	-9	.	-2.6	-6.8	-6.2
0.76	2%	.	.	Fc1cccc(NC(=S)N2CCCCC2)c1	.	-9	.	0.4	.
0.68	1%	.	.	O=C(CSc1nc(-c2ccccc2Cl)ns1)NCc1ccco1	.	8	.	-0.8	.
0.73	.	1	i	COc1ccccc1-n1cnc2c(c1=O)c1nc3ccccc3nc1n2-c1ccc(C)c(C)c1	-4	.	-4.5	23	0.9
0.71	.	-29	i	COc1ccc(CCN(C)C(=O)CCCN2C(=O)c3cccc4cccc(c34)C2=O)cc1OC	-22	-6	-3.8	-0.5	-0.7
0.68	.	8	i	COc1cc(C(=O)N2CCN(S(=O)(=O)c3ccc(Cl)cc3)CC2)ccc1OCC(=O)N1CCOCC1	3	.	-1.0	0.4	0.0
0.71	.	11	i	Cc1ccc(C(=O)NNc2cc(=O)n(C)c(=O)n2C)cc1C	17	-15	-0.8	-0.8	-0.9
0.62	16%	-5	i	COc1cc(S(=O)(=O)N2CCCC3(CCCCC3)C2)ccc1-n1cnnn1	8	1	0.7	1.1	-32
0.72	.	-22	i	COC(=O)c1ccc(NC(=O)C2CC3CCC2C3)cc1 (stereo not drawn)	-16	1	-6.7	3.5	-3.2
0.61	13%	12	i	Cc1cc(Sc2nc(N)ncc2[N+](=O)[O-])ncn1	2	98*	0.8	-4.7	-1.5
0.73	2%	5	i	CCN(CC)S(=O)(=O)c1cc(NC(=O)c2cccc(N3C(=O)CCC3=O)c2)ccc1Cl	0	-3	0.7	-1.4	0.7
0.7	-5%	4	i	COc1cc(O)c(C(CCN2CCOCC2)c2ccc3c(c2)OCO3)c(OC)c1 (stereo not drawn)	9	7	-7.8	0.2	9.3
0.68	.	-1	i	CC(OC(=O)CN1C(=O)NC2(CCCC2)C1=O)C(=O)Nc1cccc(Cl)c1 (stereo not drawn)	-2	-1	-1.6	0.5	-1.2
0.74	4%	.	.	O=C(/C=C/Nc1ccc(F)cc1)c1ccc(Oc2ncccn2)cc1	.	1	.	-2.4	.
0.72	.	-4	i	CSC(=NC(C)c1ccccc1)NS(=O)(=O)c1cccs1 (stereo not drawn)	-9	-5	0.4	-4.3	-26
0.65	-11%	-3	i	CCN(CC)CCNC(=O)C(Cl)=C1C(Cl)=C(Cl)C(Cl)=C1Cl	-3	.	5.4	1.5	-1.0
0.69	-5%	2	i	COc1ccccc1C(=O)NCCCNc1ccc([N+](=O)[O-])cc1	14	-11	0.0	3.6	-3.3
.	.	-7	i	COCc1ccc(-c2c(-c3ccccc3OC)sc3cc4c(cc23)OCO4)cc1	3	-4	-7.7	-1.9	3.9
.	-2%	-56	i	O=C(CN(c1ccccc1Cl)S(=O)(=O)c1ccccc1)NC1CC2CCC1C2 (stereo not drawn)	-20	.	4.1	0.1	-2.3
0.73	.	8	i	O=C(COc1ccc(S(=O)(=O)N2CCOCC2)cc1)NCC1CCCO1 (stereo not drawn)	7	4	-2.0	-0.8	-0.4
0.7	-7%	8	i	Cc1cc(=O)oc2cc(OCC(=O)Nc3nccs3)ccc12	6	-2	1.4	5.0	-7.0
0.73	4%	.	.	Cc1nn(Cc2ccc(C(=O)N3N=C(C(F)F)CC3(O)C(F)F)o2)c(C)c1[N+](=O)[O-] (stereo not drawn)	.	-9	.	1.7	.

Continuation.
E coli growth	Vif A3G	rRNA inh HTS OD600	FGF22 binding	SMILES	rRNA inh HTS	ALR H2O2 inh	rRNA inh HTS RFP	HNF4A DNA FP	AF4-AF9 inh
0.66	-9%	.	.	Cc1nc(-c2cccc(S(=O)(=O)N3CCC(C)CC3)c2)cs1	.	-24	.	-3.0	.
0.79	3%&-18%	.	.	Cc1c(C(=O)Nc2ccccc2Cl)oc2ccc(S(=O)(=O)N3CCC4(CC3)OCCO4)cc12	.	-6	.	-5.3	.
0.72	-9%	.	.	Cn1c(=O)n(CCC(=O)O)c2ccccc21	.	-3	.	1.8	.
0.65	24%	.	.	Cc1[nH]c2ccccc2c1-c1nc2ccccc2[nH]1	.	89*	.	1.6	.
0.65	-4%	.	.	O=C(CSc1nc2c(c(=O)n1-c1ccc(Cl)cc1)SCC2)N1CCCC1	.	26	.	0.6	.
0.65	-1%	15	i	CCCn1nnc(NC(=O)C(C)C)n1	12	-14	2.2	-5.0	1.4
.	.	-1	i	C[C@@H]1CN([C@@H](C)CO)C(=O)c2cc(NC(=O)CCN3CCOCC3)ccc2O[C@@H]1CN(C)Cc1ccc(C(F)(F)F)cc1	0	.	0.0	.	0.5
0.72	-1%	.	.	c1ccc(-c2nc(N3CCN(c4ccccc4)CC3)nc(-n3ccnc3)n2)cc1	.	-8	.	1.4	.
0.65	-5%	-4	i	O=C1Nc2c(Br)cccc2C1=O	-9	-10	-1.1	2.8	-5.5
.	.	3	i	C[C@H](CO)N1C[C@H](C)[C@H](CN(C)C(=O)Nc2ccc(C(F)(F)F)cc2)Oc2ccc(NC(=O)Nc3cccc4ccccc34)cc2CC1=O	4	.	-0.2	.	1.8
0.72	.	5	i	O=C(NC(=S)NCC1CCCO1)c1ccc(Cl)cc1 (stereo not drawn)	1	11	-2.2	5.6	7.2
0.67	5%	.	.	O=C(NCCn1cccc1)c1cccc2ccccc12	.	3	.	5.8	.
0.73	3%	12	i	CCn1cc(S(=O)(=O)c2ccc(C)cc2)[nH]c1=O	16	19	2.9	-1.3	5.4
0.7	-6%	-1	i	COc1ccc(C)cc1Nc1nc(C)nc2sc(C)cc12	-10	-8	-6.2	3.0	-5.2
0.79	-2%	.	.	CC(C)CCN1C(=O)c2ccc(C(=O)NCc3ccco3)cc2C1=O	.	-5	.	2.7	.
0.66	-1%	-4	i	COc1ccc(CCC(=O)Nc2sc(C(=O)N(C)C)c(C)c2C#N)cc1	-3	.	0.3	-1.9	-1.0
0.71	?	0	i	Cc1ccc(NC(=O)CN2C(=O)NC3(CCc4ccccc43)C2=O)cc1 (stereo not drawn)	-3	-7	1.6	0.6	-8.8
0.67	5%	4	i	Nc1nnc(Cc2cccc(Br)c2)s1	1	-5	-2.0	-0.9	1.1
0.66	-9%	5	i	COc1ccccc1NC(=O)Nc1ccccc1C(N)=O	15	.	2.0	0.4	-0.4
0.64	3%	.	.	Cc1cccc(Oc2ccc(N)cc2)c1	.	98*	.	0.8	.
0.73	-12%	12	i	COc1ccc(S(=O)(=O)N2CCCCCC2)cc1NC(=O)c1ccccc1	6	-11	0.7	-2.3	-1.4

Arranged by the number under rRNA inh HTS (descending): some entries from above.
SMILES	E coli growth	Vif A3G	rRNA inh HTS OD600	FGF22 binding	rRNA inh HTS	ALR H2O2 inh	rRNA inh HTS RFP	HNF4A DNA FP	AF4-AF9 inh
O=C(Nc1nccs1)OCc1ccccc1	0.59	.	7	i	20	-1	1.9	2.2	3.8
O=C(NC(=S)NCC1CCCO1)c1ccc(Cl)cc1 (stereo not drawn)	0.72	.	5	i	1	11	-2.2	5.6	7.2
COc1ccc(NC(=O)c2cc(-c3cc(C)cs3)[nH]n2)cc1OC	.	.	-2	i	-14	.	2.1	1.4	-2.4

Only part of the results is shown. The share of hits here may be higher or lower than overall.
